# Screens from PubChem BioAssay.
# Methyltransferases = Primary Screen for Target Class Profiling of Small Molecule Inhibitors of Methyltransferases; purified enzyme, MTase-Glo SAH luminescence; hits give low values; calls only at 40 µM; 25,000 compounds, 3.9% hits; active = -50% or lower on at least one of six enzymes; inconclusive = the cases between; inactive = as a rule above -30% on all six;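 also: enzymes were COMT GAMT GNMT HNMT NNMT and PNMT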
#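 Each enzyme was reacted with SAM and its substrate, with compounds tested once at 40 uM; SAH formed was read by MTase-Glo luminescence.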
# Calls only; i = inactive; ? = inconclusive; + = active, no number. % is scaled to controls: 0 for no effect and ±100 for the full control effect.
Structure	Methyltransferases
COC(=O)c1ncn2c1C(=O)N(Cc1ccc(F)cc1)C(C)(C(=O)NC1CCCCCC1)C2 (centres undefined)	i
CC1(C(=O)NC2CCCCCC2)Cn2nc(C3CC3)cc2C(=O)N1Cc1cccc(Cl)c1 (centres undefined)	i
Cc1ccc(NC(=O)Cn2nc3n(CC(C)C)c(=O)c4ccc(C(=O)NC(C)C)cc4n3c2=O)cc1	i
Cc1ccc(S(=O)(=O)c2nnn3c2nc(N2CCC(N4CCCCC4)CC2)c2ccccc23)cc1C	+
CN1C(=O)c2cc3ccccc3n2CC1(C)C(=O)NCC(=O)NCc1cccc(F)c1 (centres undefined)	i
O=C(NCc1ccncc1)c1ccc(-c2ccsc2)nc1	i
COC(=O)C#Cc1ccc([N+](=O)[O-])cc1	?
Clc1ccc2c(c1)C1C=CCC1C(c1cccc3ccccc13)N2 (centres undefined)	i
Cc1ccc(NS(=O)(=O)c2cc3[nH]c(=O)[nH]c3cc2C)cc1	i
O=C(NCCO)c1cc(C(=O)NCCO)cc(C(=O)NCCO)c1	?
CCc1ccc(N2C(=O)c3cc(C(C)(C)C)nn3CC2(C)C(=O)NCc2ccccc2)cc1 (centres undefined)	i
CC(=O)OC[C@@]12C(=O)C[C@@H](C)[C@]3(C[C@@H](c4ccoc4)O[C@H]3OC(C)=O)[C@H]1CCC[C@]21CO1	i
CC(/C=C/C1=CC2=CC(=O)C(C)(O)C(O)C2=CO1)=C\C(C)CCO (centres undefined)	i
CN(C)C1CCCN(C(=O)c2csc3c2CCCC3)CC1 (centres undefined)	i
CSCC(=O)N[C@@H]1CN(Cc2cccnc2)C[C@H]1CN(C)C	i
CCCn1c(=O)c2cc(F)ccc2n2c(SCC(N)=O)nnc12	i
Cc1cnc(C2CC2)n1C1CCN(S(=O)(=O)c2ccc3c(c2)OCCO3)CC1	?
CC1(C)N=C(c2ccccc2)C(=O)N1CC(=O)N1CCN(c2ccccc2F)CC1	i
CCCn1c(=O)c2ccc(C(=O)NCC(C)C)cc2n2c(SCC(=O)Nc3ccc(F)cc3)nnc12	i
C=CCNC(=O)c1cnn2c1CN(C(=O)c1cccnc1)CC2	i
COC(=O)c1cc2n(n1)CC(C)(C(=O)NC1CCCCC1)N(c1ccccc1C)C2=O (centres undefined)	i
CNC(=O)[C@H]1C[C@H](Oc2ccccc2)CN1S(=O)(=O)c1c(C)noc1C	i
Cc1ccc(CNS(=O)(=O)c2cc3c(cc2C)n(C)c(=O)n3C)cc1	i
CC(Cc1cc2c(c(C(N)=O)c1)N(CCCO)CC2)NCCOc1ccccc1OCC(F)(F)F (centres undefined)	i
Cc1cc(C)c(NS(=O)(=O)c2ccc3c(c2)n(C)c(=O)n3C)c(C)c1	?
Cc1nc(C(C)C)ncc1C(=O)N1CCC2(CCCN(C)C2=O)C1 (centres undefined)	i
CC1CCN(S(=O)(=O)c2ccc3c(c2)oc(=O)n3CC(=O)NCc2ccc(F)cc2)CC1	i
O=S(=O)(Nc1ccccc1F)c1ccc2[nH]c3c(c2c1)CCCC3	i
O=C(NC[C@H]1OC[C@@H](NCc2cccnc2)[C@@H]1O)N1CCOCC1	i
COC(=O)Cc1cc2c(c([N+](=O)[O-])c1)N(C(=O)CC[C@H](N)C(=O)O)CC2	i

# Brought forward from above: 4 entries, then new ones.
Structure	Methyltransferases
CC1CCN(S(=O)(=O)c2ccc3c(c2)oc(=O)n3CC(=O)NCc2ccc(F)cc2)CC1	i
O=S(=O)(Nc1ccccc1F)c1ccc2[nH]c3c(c2c1)CCCC3	i
O=C(NC[C@H]1OC[C@@H](NCc2cccnc2)[C@@H]1O)N1CCOCC1	i
COC(=O)Cc1cc2c(c([N+](=O)[O-])c1)N(C(=O)CC[C@H](N)C(=O)O)CC2	i
CC(F)(F)CN1CCOc2c(nn(-c3ccccc3Cl)c2-c2ccc(Cl)cc2)C1=O	+
CCN1C(=O)c2cc3ccccc3n2CC1(C)C(=O)NCC(=O)NCc1cccs1 (centres undefined)	i
CC(C)CCNC(=O)C1(C)Cn2nc(C(=O)N3CCN(C4CCCCC4)CC3)cc2C(=O)N1C (centres undefined)	i
CC1C(=O)OCC2=CCN3CCC(OC(=O)C(C)(O)C1(C)O)C23 (centres undefined)	i
Cc1cccc(-c2nnn3c2nc(NCc2ccc(F)cc2)c2ccccc23)c1	i
Cc1cc(C)cc(N2C(=O)c3cc(C(C)(C)C)nn3CC2(C)C(=O)NC2CCCCC2)c1 (centres undefined)	i
CC1(C)CCCC2(C)C1C(O)C=C(CO)C2(O)C(=O)O (centres undefined)	i
CCOC(=O)c1ccc(NS(=O)(=O)c2ccc3c(c2)n(C)c(=O)n3C)cc1	i
CCN1C(=O)c2cc(C(=O)NCCCN3CCCCC3)nn2CC1(C)C(=O)NC1CCCC1 (centres undefined)	i
Cc1ccc(C(c2sc3nc(-c4ccco4)nn3c2O)N2CCOCC2)cc1 (centres undefined)	?
O=S(=O)(NCc1ccccc1Cl)c1ccc2[nH]c3c(c2c1)CCCC3	i
CN1C(=O)c2cc(C(=O)NCCCN3CCCC3)nn2CC1(C)C(=O)NC1CCCCCC1 (centres undefined)	i
Clc1ccc(-c2nnn3c2nc(NCCc2c[nH]c4ccccc24)c2ccccc23)cc1	i
CC1=CC(=O)C2C(C)(C)CCC[C@]2(C)[C@H]1CO (some centres undefined)	i
CC(C)OCCCn1c(=O)c2ccccc2n2c(SCC(=O)Nc3ccc(C(C)C)cc3)nnc12	i
CN(C)C(=O)CNC(=O)c1cccc(S(=O)(=O)NCCn2ccnc2)c1	i
C=C[C@H]1C(O[C@@H]2O[C@H](CO)[C@@H](O)[C@H](O)[C@H]2O)OC=C2C(=O)N3CCc4c([nH]c5ccccc45)C3CC21 (some centres undefined)	i
O=C(NCc1ccccn1)c1ccc2c(=O)nc3c(-c4cccc(F)c4)n[nH]n3c2c1	i
CC1(C(=O)NCc2ccccc2)Cn2c(cc3ccccc32)C(=O)N1C1CC1 (centres undefined)	i
O=C(O)CCC(=O)N1CCC2(CC1)C(=O)NCN2C(=O)Cc1c[nH]c2ccccc12	i
COC(=O)N(C)Cc1cccc(C(F)(F)F)c1	i
CC(=O)Nc1ccc(Nc2nc3c(S(=O)(=O)c4cc(C)ccc4C)nnn3c3ccccc23)cc1	i
CCCN1C(=O)c2c(C(=O)NCCc3ccccc3Cl)ncn2CC1(C)C(=O)NC1CCCC1 (centres undefined)	i
C[C@@H]1CC[C@]2(C(=O)O)CC[C@]3(C(=O)O)C(=CCC4[C@@]5(C)CC[C@H](O[C@@H]6O[C@@H](C)[C@H](O[C@@H]7O[C@H](CO)[C@@H](O)[C@H](O)[C@H]7O)[C@@H](O)[C@H]6O)C(C)(C)C5CC[C@]43C)C2[C@H]1C (some centres undefined)	i
Cc1cc2c(cc1S(=O)(=O)NCc1ccc3c(c1)OCO3)n(C)c(=O)n2C	i
COc1cccc(N2C(=O)c3cc4ccccc4n3CC2(C)C(=O)NC2CCCC2)c1 (centres undefined)	i
COC(=O)N1CCCCC12Cc1ccccc1NC2=O (centres undefined)	i
COc1ccc2cc(-c3cc(-c4cc(Cl)cc(Cl)c4)nn3C(C)c3ccc(C(=O)NCCC(=O)O)cc3)ccc2c1 (centres undefined)	i
Nc1nc(F)nc2c1ncn2[C@@H]1O[C@H](CO)[C@@H](O)[C@@H]1O	i
CCN(CC)CCNC(=O)CCn1ccc2cc(S(=O)(=O)N3CCCCC3)ccc21	i

# Next part.
mol,Methyltransferases
COc1ccc(CCN2CCN(CCCc3ccccc3)CC2)cc1OC,i
CCCn1c(=O)c2ccc(C(=O)NCC(C)C)cc2n2c(SCC(=O)Nc3ccc(C)c(C)c3)nnc12,i
CN(C)CC1CCOC1(c1ccccc1)c1ccccc1 (centres undefined),i
CCOC(=O)c1cc2n(n1)CC(C)(C(=O)NC1CCCCC1)N(c1ccc(F)cc1F)C2=O (centres undefined),i
COCC(=O)N[C@H]1CCN(C(=O)COC)[C@H](C(=O)N[C@H](Cc2ccccc2)C(N)=O)C1,i
Fc1cccc2c1NC(c1ccc(Br)cc1)C1CC=CC21 (centres undefined),i
CC(=O)Nc1c2n(c3ccc(F)cc13)CC(C)(C(=O)NC1CCCC1)N(c1ccc(C)cc1C)C2=O (centres undefined),i
Cc1nc(C2CCN(C(=O)[C@H]3CNC[C@H](C(=O)N4CCCC4)C3)CC2)n[nH]1,i
CNC(=O)C(C)(C)N1CCC[C@H]1C(=O)NCc1ccccc1,i
CCN1C(=O)c2c(C(=O)NCc3cc(OC)ccc3OC)ncn2CC1(C)C(=O)NC1CCCC1 (centres undefined),i

# 3 entries from above, with each value named.
COCC(=O)N[C@H]1CCN(C(=O)COC)[C@H](C(=O)N[C@H](Cc2ccccc2)C(N)=O)C1
  Methyltransferases: i

CCCn1c(=O)c2ccc(C(=O)NCC(C)C)cc2n2c(SCC(=O)Nc3ccc(C)c(C)c3)nnc12
  Methyltransferases: i

CN(C)CC1CCOC1(c1ccccc1)c1ccccc1 (centres undefined)
  Methyltransferases: i

# Other records
mol,Methyltransferases
O=C(Nc1ccccc1)N1CCC(N2CC3CCCN3C2=O)CC1 (centres undefined),i
COc1ccc(-n2ccnc2-c2cc3n(n2)CCCNC3)c(OC)c1,i
Cc1nc2ccccn2c1C(=O)NC(C)c1cnn(-c2ccccn2)c1C (centres undefined),i
COc1ccc(-c2n[nH]n3c2nc(=O)c2ccc(C(=O)NCCc4ccccc4)cc23)cc1,i
CCNC(=O)[C@@H]1C[C@H](NC(=O)c2ccc(CO)o2)CN1Cc1nccs1,i
Cn1c(=O)c2ccc(C(=O)NC3CCCCC3)cc2n2c(SCc3ccc(F)cc3)nnc12,i
CCNC(=O)N1CCCCCC1CN1CCC(C)CC1 (centres undefined),i
CCCn1c(=O)c2ccc(C(=O)NC3CCCC3)cc2n2c(=O)n(CC(=O)Nc3ccccc3)nc12,i
COc1ccc(Cl)cc1NC(=O)Cn1nc2cc(C)nc(Nc3ccccc3)n2c1=O,i
CCN(CC)C(=O)[C@@H]1CCC[C@@H](NCc2cccc(OC)c2)CN(C)C(=O)C1,i
CCN(CCO)CCCC(C)Nc1ccnc2cc(Cl)ccc12 (centres undefined),?
Cc1ccc(-c2noc([C@@H]3CCCN3C(=O)CCCc3ccccc3)n2)cc1,i
O=C(NC1CCCCC1)c1ccc2c(=O)nc3c(-c4ccc(Cl)cc4)n[nH]n3c2c1,i
CCOC(=O)c1cc2n(n1)CC(C)(C(=O)NCc1ccc(F)cc1)N(c1ccc(F)cc1)C2=O (centres undefined),i
CC1(C)CC[C@]2(C(=O)O[C@@H]3O[C@H](CO[C@@H]4O[C@H](CO)[C@@H](O)[C@H](O)[C@H]4O)[C@@H](O)[C@H](O[C@@H]4O[C@H](CO)[C@@H](O)[C@H](O)[C@H]4O)[C@H]3O)[C@H](O)C[C@]3(C)C(=CCC4[C@@]5(C)CC[C@H](O[C@@H]6OC[C@@H](O)[C@H](O)[C@H]6O)[C@@](C)(C(=O)O)C5CC[C@]43C)[C@@H]2C1 (some centres undefined),i
O=S1(=O)CCN(CN2CCS(=O)(=O)NC2)CN1,?
CSc1ccc(CCNC(=O)c2cc3n(n2)CCCN(Cc2ccc(Cl)cc2)C3=O)cc1,i
O=C1CN(Cc2ccc(Cl)cc2)S(=O)(=O)c2ccccc2N1Cc1cccc(F)c1,i
COc1cccc([C@@H]2CN(C(=O)c3cc(C)oc3C)C[C@H]2C(=O)O)c1OC,i
Cc1ccc(N2C(=O)c3cc4sccc4n3CC2(C)C(=O)NC2CCCC(C)C2C)cc1C (centres undefined),i

# Two of the compounds above, with each value named:
CCN(CC)CCNC(=O)CCn1ccc2cc(S(=O)(=O)N3CCCCC3)ccc21
  Methyltransferases: i
Cc1ccc(NS(=O)(=O)c2cc3[nH]c(=O)[nH]c3cc2C)cc1
  Methyltransferases: i

# Other structures
mol,Methyltransferases
Cc1ccc(NC(=O)Cn2nc3n(CCc4ccccc4)c(=O)c4ccccc4n3c2=O)cc1C,i
CN1C(=O)c2cc3ccccc3n2CC1(C)C(=O)NCC(=O)NCCc1ccc(Cl)cc1 (centres undefined),i
O=C(NC1CCCN(C2CCCCCC2)C1)c1ccccc1C(F)(F)F (centres undefined),i
COc1ccc(C)cc1NS(=O)(=O)c1cc2c(cc1C)n(C)c(=O)n2C,i
CCCn1ncc(CN2CCCC23CCN(c2ncccn2)CC3)c1C,i
O=C(COc1ccc(F)cc1)N1CCCCC1c1nc(-c2cnccn2)n[nH]1 (centres undefined),i
CC(=O)Nc1ccc(CN2CC[C@@H](c3ccc4c(c3)OCO4)[C@H](O)C2)cc1,i
CCCSCCCN1C(=O)c2nc3ccccc3n2CC1(C)C(=O)NC1CCCCC1 (centres undefined),i
Cc1cccc(CNC(=O)CCn2ccc3cc(S(=O)(=O)N4CCCCC4)ccc32)c1,i
CCOc1cc(OCC)c2c(-c3ccccc3)cc(=O)oc2c1,+
CC(=O)O[C@@H]1C=C2[C@H](CC[C@@]3(C)[C@@]2(O)CC[C@H]2Cc4c([nH]c5ccccc45)[C@@]23C)O[C@@H]1C(C)(C)O,i
CCOc1cc(C(C)(C)C)ccc1C1=N[C@@](C)(c2ccc(Cl)cc2)[C@@](C)(c2ccc(Cl)cc2)N1C(=O)N1CCN(CC(=O)N2CCOCC2)CC1,?
CC(C)NC(=O)c1ccnc(-c2ccccc2S(=O)(=O)NC(C)(C)C)c1,i
CC(C)Cn1c(=O)c2cc(F)ccc2n2c(SCC(=O)Nc3ccc(F)cc3)nnc12,i
Cc1cccnc1NCCNC(=O)c1ccc(S(N)(=O)=O)cc1,i
Fc1ccc2nc(CO[C@H]3CN(C4CCOCC4)C[C@H]3F)[nH]c2c1,i
CC(C)C1c2cccn2CCN1C(=O)Nc1ccccc1Cl (centres undefined),i
COc1ccc(NC(=O)N[C@H]2C[C@@H](C(=O)N[C@@H](Cc3cccs3)C(N)=O)N(C(=O)CSC)C2)cc1,i
Cc1ccc([C@@H]2CN(c3cc(N4CCC(O)CC4)ncn3)C[C@H]2N(C)C)cc1,+

# Some of the compounds tested (hit frequency here may not be typical).
